Screening results: PubChem BioAssay, Johns Hopkins Ion Channel Center
KCNQ2 inh: KCNQ2 channel blockers in CHO-K1 cells – cell-based, FluxOR thallium flux, B-score, primary screen (AID 2156). 20 min; stronger effect = lower value; only compounds with negative scores are shown here; some inactives read as strong as hits. O88943. 310,000 compounds, 1.1% hits. B-score at 10 µM;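 active means fluorescence ratio B-score at most minus 3 library SDs, with starting brightness B-score within 2 library SDs, cut at about -5.5 in these data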
Target sequence (O88943 whole entry, looked up): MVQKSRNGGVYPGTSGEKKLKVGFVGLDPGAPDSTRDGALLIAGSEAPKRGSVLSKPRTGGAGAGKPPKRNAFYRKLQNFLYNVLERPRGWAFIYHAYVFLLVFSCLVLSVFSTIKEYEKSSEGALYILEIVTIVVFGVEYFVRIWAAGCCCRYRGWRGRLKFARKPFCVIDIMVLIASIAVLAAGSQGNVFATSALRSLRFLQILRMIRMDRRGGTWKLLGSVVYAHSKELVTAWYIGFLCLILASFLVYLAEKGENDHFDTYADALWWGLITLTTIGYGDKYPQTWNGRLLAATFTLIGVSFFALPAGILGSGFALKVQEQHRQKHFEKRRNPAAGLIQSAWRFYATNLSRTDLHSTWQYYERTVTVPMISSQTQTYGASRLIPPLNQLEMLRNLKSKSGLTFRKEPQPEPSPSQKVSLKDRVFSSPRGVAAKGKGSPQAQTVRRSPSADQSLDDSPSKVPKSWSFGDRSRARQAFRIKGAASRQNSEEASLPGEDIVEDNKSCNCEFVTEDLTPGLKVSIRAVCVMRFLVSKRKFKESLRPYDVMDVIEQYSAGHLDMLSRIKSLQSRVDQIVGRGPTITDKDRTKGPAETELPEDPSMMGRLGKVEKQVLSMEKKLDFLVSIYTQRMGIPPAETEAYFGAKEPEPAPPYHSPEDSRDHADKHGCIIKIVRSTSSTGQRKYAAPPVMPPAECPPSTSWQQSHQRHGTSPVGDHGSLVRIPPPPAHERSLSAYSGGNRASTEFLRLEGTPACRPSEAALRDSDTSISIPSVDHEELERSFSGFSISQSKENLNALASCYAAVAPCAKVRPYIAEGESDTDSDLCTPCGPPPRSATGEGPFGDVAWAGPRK
KCNQ2 inh baseline: also measured in KCNQ2 inh; calls as there; B-score; measured here: initial fluorescence intensity artifact check;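 brightness before thallium and not channel activity; 0 = typical well and far values either way flag optical interference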
An asterisk follows results filed as active; i = inactive.

SMILES	KCNQ2 inh	KCNQ2 inh baseline
CC(C)(C)n1nnnc1C(c1ccccn1)N1CCN(C(c2ccccc2)c2ccccc2)CC1 (configuration not stated)	i	8.96
O=C(NCCC1CCCCN1S(=O)(=O)c1ccccc1)C(=O)NCc1ccccc1F (configuration not stated)	i	0.8
Cn1c(=O)n(C)c2cc(/C=N/NC(=S)NCc3ccccc3)ccc21	i	-0.08
COc1ccc(/C=N/NC(=O)c2cc(C)oc2C)cc1OC	i	0.07
CCC(=O)c1ccc(OCC(=O)OCC(=O)NCCC2=CCCCC2)cc1	i	-0.4
CCOC(=O)c1noc(C)c1C(=O)Nc1nccs1	i	1.45
C/C(=N\NC(=O)c1cc(-c2ccncc2)nc2ccccc12)c1ccc(OC(F)F)cc1	i	1.21
COc1ccc(CCNC(=S)NC(=O)/C=C/c2ccc(C)cc2)cc1OC	i	0.49
CCn1c(SCC(=O)Nc2ccccc2C(=O)OC)nnc1-c1ccoc1C	i	-1.39
O=C(O)c1ccc(N2C(=O)CC(SC(=NCc3ccc4c(c3)OCO4)Nc3ccc(F)cc3)C2=O)cc1 (configuration not stated)	i	0.98
CC(C)CC(C(=O)Nc1oc(-c2ccco2)c(-c2ccco2)c1C#N)N1C(=O)c2ccccc2C1=O (configuration not stated)	i	-0.04
Cc1ccc2[nH]cc(/C=C/c3cc[n+](C)cc3)c2c1	i	29.7
COc1ccc(OC)c(S(=O)(=O)NCCc2ccccc2)c1	i	0.02
C[n+]1ccccc1/C=C/c1ccc(C#N)cc1	i	1.88
Cc1ccc(-c2[nH]c(-c3ccc(Cl)cc3)nc2SCC(=O)NCC2CCCO2)cc1 (configuration not stated)	i	-0.03
CC1CN(CCOc2cccc(Oc3ccccc3)c2)CC(C)O1 (configuration not stated)	i	-1.47
CCCn1c(CNc2ccc(Br)cc2)nc2ccccc21	i	0.02
CN(C)c1cccc(C(=O)NCCCSc2ccccc2)c1	i	-1.39
Cc1ccc(NS(=O)(=O)c2ccc(C)c(NC(=O)COc3ccc4ccccc4c3)c2)c(C)c1	i	-0.27
Cc1cc(C(=O)Nc2ccc(Cl)cc2)n(-c2ccccc2)n1	i	-0.75
Cc1ccc(C(c2c(O)nc3n(c2=O)CCS3)c2c(O)nc3n(c2=O)CCS3)cc1	i	-0.06
COc1ccccc1CN1CC(C(=O)NCc2ccc(N3CCCC3=O)cc2)CCC1=O (configuration not stated)	i	0.45
COc1cccc(CNC(=O)CCC2CCCN(C(=O)Cc3ccccc3F)C2)c1 (configuration not stated)	i	-0.78
O=C(NCCc1ccccc1)C1CCN(S(=O)(=O)N2CCCCCC2)CC1	i	3.16
COc1cc(OC)cc(C(=O)NCC(=O)N2CCC(C)CC2)c1	i	-0.56
OC(c1ccccc1)c1nccc2ccccc12 (configuration not stated)	i	-2.04
Cc1ccc(NC2=C(N3CCCCC3)C(=O)c3ccccc3C2=O)cc1	i	-0.6
CCOc1cc(C(C(=O)NCC2CCCO2)N(C(=O)Cn2nnc3ccccc32)c2ccc(C(C)=O)cc2)ccc1O (configuration not stated)	i	0.64
CS(=O)(=O)N(CC(=O)N1CCc2ccccc2C1)c1cccc(F)c1	i	-1.64
CCOC(=O)c1c(C)nc(C)c(C(=O)OCC)c1-c1ccc(Br)cc1	i	0.28
Cc1onc(-c2ccccc2)c1C(=O)OCC(=O)c1ccccc1	i	0.6
C/C(CC(=O)Nc1ccc2c(c1)OCCO2)=N\NC(=O)Cc1ccc(Cl)cc1	i	0.02
O=C(NCc1ccc2c(c1)OCO2)C(=O)Nc1cc2c3c(c1)CC(=O)N3CCC2	i	-1.56
CC(Oc1ccc(F)cc1)C(=O)Nc1cccc(-c2nn[nH]n2)c1 (configuration not stated)	i	0.34
COc1cc(OC)cc(C(=O)N2CCCC(Nc3ccc(F)cc3)C2)c1 (configuration not stated)	i	0.99
O=C(COC(=O)C12CC3CC(CC(C3)C1)C2)Nc1ccc2[nH]c(=O)[nH]c2c1	i	0.61
CC(=O)N(C)c1ccc(NC(=O)Nc2ccc(C)cc2)cc1	i	-2.42
CC(C)Cc1cc(C(=O)NCCN2CCOCC2)no1	i	-0.34
Cc1nc2oc(C(=O)c3ccccc3)c(N)c2c2c1COC(C)(C)C2	i	0.99
Cc1c(-c2ccccc2)[n+](=O)c(-c2ccc(Cl)cc2)c(C)n1[O-]	i	0.56
CCC(c1nnnn1CCOC)N(Cc1ccc(C)cc1)Cc1cc2cc(OC)ccc2[nH]c1=O (configuration not stated)	i	-2.05
COc1ccc(-c2cn[nH]c2-c2ccc(OCc3ccc(F)cc3)cc2O)cc1OC	i	0.29
Cc1ccc(OCC(=O)OC2CCCN(C)C2)cc1 (configuration not stated)	i	0.31
O=C(Cn1c(CO)nc2ccccc21)NC1CCCCCC1	i	-0.44
CCN(CC)c1ccc(C=C(c2nnnn2-c2ccccc2)c2nnnn2-c2ccccc2)cc1	i	-0.05
O=C(OCC(=O)c1ccc(Cl)s1)c1cnccn1	i	-1.1
CCOCCCn1c(C)nc2c(c1=O)c1nc3ccccc3nc1n2-c1ccc(C)cc1	i	-1.55
Cc1c(Cc2ccccc2)c(=O)n2c([nH]c3ccccc32)c1C#N	i	1.24
CCCOc1ccc(C(=O)NCC(c2cccs2)N(C)C)cc1 (configuration not stated)	i	1.17
Cc1nn(Cc2cccc3ccccc23)c(C)c1NC(=O)c1cccnc1	i	5.39
Cn1c(Cc2cccs2)nnc1SCC(=O)N1CCc2ccccc21	i	-0.56
COC(=O)c1cc(Br)cn1S(=O)(=O)c1ccccc1	i	-0.85
O=[N+]([O-])c1ccc(Cl)c(/C=N/N2CCN(Cc3ccc(Cl)cc3)CC2)c1	i	1.02
Cc1cc(NS(=O)(=O)c2ccc(C3CCCCC3)cc2)no1	i	1.33
CCCCn1c(N)c(N(Cc2ccccc2OC)C(=O)c2ccc([N+](=O)[O-])s2)c(=O)[nH]c1=O	i	-0.02
COC(=O)c1cc2c(C)cc3ccc(C)cn3c-2c1C(=O)OC	i	0.73
O=C(Nc1cccc(Cl)c1)c1cncn1-c1ccc(F)cc1	i	0.4
O=C(c1cccc(S(=O)(=O)N2CCOCC2)c1)N1CCOCC1	i	0.01
CC(C)(C)c1ccc(-c2nnc(SCCC#N)n2C2CCCC2)cc1	-8.48*	0.65*
COc1ccccc1NC(=O)Cn1nnc(-c2ccccc2NC(=O)c2cnccn2)n1	i	-0.41

Continuation.
SMILES	KCNQ2 inh	KCNQ2 inh baseline
Cc1ccc(S(=O)(=O)N/N=C\c2ccc(C)o2)cc1	i	0.32
O=C(O)c1nccnc1C(=O)Nc1ccc(Oc2c(Cl)cccc2Cl)nc1	i	-0.42
CC(C)Cn1cnc2c1c(=O)n(CC(O)c1ccccc1)c(=O)n2CC(C)C (configuration not stated)	i	2.59
O=C(O)c1cc(S(=O)(=O)Nc2cccc(Oc3ccccc3)c2)ccc1Br	i	-0.01
O=c1c2ccccc2nc(COc2ccccc2)n1/N=C/c1ccc(O)cc1O	i	-1.26
COc1cccc(/C(O)=C/c2nc3ccc(C(=O)NCCc4cccc(C)c4)cc3[nH]c2=O)c1	i	2.27
CC(C)(C)NCc1ccc(OCc2cccs2)cc1	i	0.18
Cc1cc(C)n(CC(=O)N2CCCC(N3CCN(c4ccc(F)cc4)CC3)C2)n1 (configuration not stated)	i	0.94
COc1cccc(C(=O)NCCSc2ccc(C)cc2)c1	i	-1.41
Cc1ccc(S(=O)(=O)NCc2ccccc2)cc1C(=O)NC1CCCCC1	i	2.46
Cc1cccc(OCCn2c(=O)oc3ccc(C)cc32)c1	i	-0.22
O=C(O)c1ccccc1C(=O)Nc1ccc(Nc2ccc([N+](=O)[O-])cc2[N+](=O)[O-])cc1	i	-0.81
O=C1NC(c2cccc(Cl)c2)Nc2ccccc21 (configuration not stated)	i	0.4
CCOCCCNC(=O)c1cn(CC)c2ccc(S(=O)(=O)N3CCC(C)CC3)cc2c1=O	i	-0.85
CN1CCc2c(sc(/N=C/c3ccco3)c2C(N)=O)C1	i	2.2
Cc1ccc(S(=O)(=O)c2ccc(Oc3ccccc3)cc2)cc1	i	0.09
N#Cc1nc(COc2ccccc2)oc1N1CCCCC1	i	-0.01
Fc1ccccc1-c1csc(-c2cccnc2)n1	i	1.72
O=C(CN1CC[n+]2c(-c3cccs3)csc21)c1ccc(-c2ccccc2)cc1	i	1.47
O=C(CC(=O)Nc1cccc(Cl)c1Cl)Nc1cccc(Cl)c1Cl	i	0.03
CC(C)c1csc(CN2CCC(N3CCC(C(=O)N4CCOCC4)CC3)CC2)n1	i	-0.95
COc1ccc(CN(C(=O)Cn2nnc3ccccc32)C(C(=O)NC(C)(C)C)c2ccco2)cc1 (configuration not stated)	i	-0.16
O=S(=O)(c1cccs1)N1CN(C2CCCCC2)c2nc3ccccc3nc21	i	-1.35
O=C1N/C(=N\N=C\c2ccco2)SC1Cc1ccccc1[N+](=O)[O-] (configuration not stated)	i	-1.76
[N-]=[N+]=NC[C@H](c1ccccc1)N1CCN(Cc2ccccc2)CCC1=O	i	-0.69
C=CCc1cccc2cc(C(=O)NC3=C(C#N)CCC3)c(=O)oc12	i	-0.22
O=c1c2ccccc2c(C=NCCCN2CCOCC2)c(O)n1Cc1ccccc1	i	-1.24
Cc1ccc(C2C(C#N)C(C#N)N3CCCN23)cc1 (configuration not stated)	i	0.22
N#C/C(=C\c1cccc(OC(=O)c2cccs2)c1)C(N)=O	i	-0.05
COCCSc1ccccc1C(=O)Nc1cc([N+](=O)[O-])ccc1OC	i	0.3
CCOc1ccc(Oc2ccc(NC(=O)[C@@H](NC(N)=O)[C@@H](C)CC)cc2)cc1	i	1.22
O=C(COC(=O)c1cccc([N+](=O)[O-])c1)c1ccc(OCc2ccccc2)cc1	i	-2.21
COc1ccc(N2C(=O)C3CCCN3C2c2cc(OC)c(OC)c(OC)c2)cc1 (configuration not stated)	i	-1.54
Cc1ccnc(NC(=O)c2ccc3[nH]c(=O)c(=O)[nH]c3c2)c1	i	2.12
O=C(Nc1ccc(S(=O)(=O)NCC2CCCO2)cc1)c1cnccn1 (configuration not stated)	i	1.92
Cc1ccc(Oc2ccc(/C=N/O)cn2)cc1	i	0.81
Cn1c(=O)n(CCOc2ccc(Cl)cc2Cl)c2ccccc21	i	-0.81
O=C(Cc1cccs1)NCc1ccc(Cl)cc1	i	1.15
O=C(O)c1ccccc1Nc1ccccc1C(=O)O	i	0.02
OCCNc1nc(NCCC2=CCCCC2)nc(N2CCOCC2)n1	i	0.88
O=[N+]([O-])c1cc(S(=O)(=O)Nc2ccccc2)ccc1N1CCN(c2ccccc2)CC1	i	-0.02
Cc1ccc(Oc2ccc(S(=O)(=O)NCC(C)(C)N3CCOCC3)cc2)cc1	i	0.57
O=C(CN1C(=O)CC(c2ccccc2)S(=O)(=O)c2ccccc21)N1CCCCC1 (configuration not stated)	i	-0.12
CCOC(=O)Nc1ccc(C(N)=O)cc1	i	1.68
COc1ccc(NC(=O)COc2ccccc2)cc1Cl	i	-0.12
COc1cccc(/C(O)=C/c2nc3ccc(C(=O)NCCc4ccc(Cl)cc4)cc3[nH]c2=O)c1	i	4.85
O=[N+]([O-])c1ccc(N=Nc2ncc[nH]2)cc1	i	-0.98
Cc1cc(NCCCn2ccnc2)n2c(nc3ccccc32)c1C#N	i	2.86
CC(=O)NC1(c2nnnn2CCOC(=O)Nc2ccc(Cl)cc2)CCCCC1	i	2.47
COc1cccc(C2C3=C(N=C4SCC(=O)N42)c2ccccc2CC3)c1OC (configuration not stated)	i	-1.76
CC1CN(C2CCN(S(=O)(=O)c3ccc4ccccc4c3)CC2)CC(C)O1 (configuration not stated)	i	0.23
COc1ccc(C2(CNC(=O)c3ccccc3)CCCC2)cc1OC	i	0.11
C[C@]12CC[C@@H]3c4cc(O)c(O)cc4CC[C@H]3[C@@H]1CC[C@@H]2O	i	-0.67
CCCn1c(N)c(Br)c(=O)[nH]c1=O	i	-0.2
COc1cccc(NC(=O)C(NCCc2ccc(S(N)(=O)=O)cc2)c2ccccc2)c1 (configuration not stated)	i	-1.46
Cc1ccc(S(=O)(=O)N(C)c2ccc(OCC(=O)Nc3nc4c(ccc5ccccc54)s3)cc2)cc1	i	-0.01
CN(C)CCCNC(=O)C1CCNCC1	i	0.5
CCNC(=O)C1CCCN1S(=O)(=O)c1ccc2ccccc2c1 (configuration not stated)	i	-1.99

Molecules shown so far that contain a Cl atom (15):
SMILES	KCNQ2 inh	KCNQ2 inh baseline
Cc1ccc(-c2[nH]c(-c3ccc(Cl)cc3)nc2SCC(=O)NCC2CCCO2)cc1 (configuration not stated)	i	-0.03
Cc1cc(C(=O)Nc2ccc(Cl)cc2)n(-c2ccccc2)n1	i	-0.75
C/C(CC(=O)Nc1ccc2c(c1)OCCO2)=N\NC(=O)Cc1ccc(Cl)cc1	i	0.02
Cc1c(-c2ccccc2)[n+](=O)c(-c2ccc(Cl)cc2)c(C)n1[O-]	i	0.56
O=C(OCC(=O)c1ccc(Cl)s1)c1cnccn1	i	-1.1
O=[N+]([O-])c1ccc(Cl)c(/C=N/N2CCN(Cc3ccc(Cl)cc3)CC2)c1	i	1.02
O=C(Nc1cccc(Cl)c1)c1cncn1-c1ccc(F)cc1	i	0.4
O=C(O)c1nccnc1C(=O)Nc1ccc(Oc2c(Cl)cccc2Cl)nc1	i	-0.42
O=C1NC(c2cccc(Cl)c2)Nc2ccccc21 (configuration not stated)	i	0.4
O=C(CC(=O)Nc1cccc(Cl)c1Cl)Nc1cccc(Cl)c1Cl	i	0.03
Cn1c(=O)n(CCOc2ccc(Cl)cc2Cl)c2ccccc21	i	-0.81
O=C(Cc1cccs1)NCc1ccc(Cl)cc1	i	1.15
COc1ccc(NC(=O)COc2ccccc2)cc1Cl	i	-0.12
COc1cccc(/C(O)=C/c2nc3ccc(C(=O)NCCc4ccc(Cl)cc4)cc3[nH]c2=O)c1	i	4.85
CC(=O)NC1(c2nnnn2CCOC(=O)Nc2ccc(Cl)cc2)CCCCC1	i	2.47

These rows are one share of the data (hit frequency here may not be typical).
